From PubChem
D2 ag: Beta-Arrestin HTS for Positive Allosteric Modulators of the Human D2 Dopamine Receptor: Agonists; D(2) dopamine receptor (Homo sapiens), P14416; DiscoveRx PathHunter D2 beta-arrestin, luminescence, 90 min; 100% = 57 uM dopamine signal; activation, % (no concentration beside the values); 0.084% of 360,000 active; AID 624465, 2012; in the data active = activation above about 40%; inconclusive = about 15% to 40%; inactive = below about 15%; further: compound concentration not given in the record; the text of the record calls up to 30% inactive
Target sequence (P14416 whole entry, looked up): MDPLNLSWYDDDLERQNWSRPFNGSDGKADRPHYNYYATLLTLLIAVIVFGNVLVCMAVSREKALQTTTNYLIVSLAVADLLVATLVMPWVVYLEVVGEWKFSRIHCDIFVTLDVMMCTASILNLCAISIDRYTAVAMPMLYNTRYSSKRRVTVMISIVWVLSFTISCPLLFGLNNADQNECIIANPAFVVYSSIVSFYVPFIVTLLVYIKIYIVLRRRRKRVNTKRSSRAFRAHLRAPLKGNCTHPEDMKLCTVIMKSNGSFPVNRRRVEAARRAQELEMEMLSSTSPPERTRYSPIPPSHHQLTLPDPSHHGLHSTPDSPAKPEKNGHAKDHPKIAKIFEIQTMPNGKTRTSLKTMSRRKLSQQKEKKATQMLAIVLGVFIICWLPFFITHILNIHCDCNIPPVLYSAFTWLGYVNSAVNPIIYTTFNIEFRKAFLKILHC
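DiscoveRx PathHunter D2 beta-arrestin cells (2,100/well) attached overnight, then compound-stimulated 90 min at 37 C in HBSS/10 mM HEPES/0.1% Tween-20 buffer; beta-galactosidase complementation read by luminescence after 1 h at ambient temperature. Dopamine 57 uM final (EC100) as control.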
D2 PAM: Beta-Arrestin HTS for Positive Allosteric Modulators of the Human D2 Dopamine Receptor: Potentiators; D(2) dopamine receptor (Homo sapiens), P14416; DiscoveRx D2 beta-arrestin cells, luminescence, 90 min; 100% = 57 uM dopamine signal; potentiation, % (concentration not given with the values); 0.23% of 360,000 active; AID 624464, 2012; active = potentiation of 50% or more; inconclusive = 30% to 50%; inactive = 30% or less;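 further: compound concentration not given in the record; tested on top of an EC20 dose of dopamine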
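PathHunter D2 cells, attached overnight at 37 deg C, received compound in DMSO plus dopamine at EC20 (50 nM final) for 90 min at 37 deg C. Beta-arrestin recruitment was read as luminescence after 1 h with detection reagent at ambient temperature.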
Six1-Eya2 inh: qHTS Assay for Inhibitors of the Six1/Eya2 Interaction | Homeobox protein SIX1 (Homo sapiens) + Protein phosphatase EYA2 (Homo sapiens), … | AlphaScreen GST-Six1/His-Eya2 binding, biochemical; active compounds read low; control for the full effect not named in the record | activity change, % (test concentration not listed) | 0.56% of 360,000 active; in the data active = activity change below about -65%; inconclusive = about -30% to -65%; inactive = above about -30%; further: on the % scale 0 is the no-effect control and ±100 the full control effect
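GST-Six1 + His-Eya2 (5X stock: 250/500 nM); Tris pH 8.0, 300 mM NaCl, 0.05% BSA, 0.02% Tween 20; GSH donor/Ni acceptor beads; 1 h 37 °C dark; AlphaScreen readout.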
TRPV1 potentiator: HTS Assay for Compounds that Act as Potentiators of the Vanilloid Receptor 1; TRPV1-expressing cells, Fluo-8 calcium influx, capsaicin EC20 potentiation; host cell line not named in the record; control for the full effect not named in the record; potentiation, % at 8.33 µM; 0.02% of 320,000 active; active means potentiation above 80%; inconclusive means 30% to 80%; inactive means below 30%; further: 0% is about no effect
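Cells expressing TRPV1 were dye-loaded with Fluo-8 and read kinetically: 10 s baseline, 3 min after compound (agonist portion), then 2 min after EC20 capsaicin (allosteric enhancer portion). Calcium-bound dye fluorescence at 480/520 nm.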
Sfp PPTase inh: qHTS Assay for Inhibitors of Bacillus subtilis Sfp phosphopantetheinyl transferase (PPTase); Biochemical Sfp PPTase activity, qHTS; Potency, µM, without a hit: max response, negative = inhibition, actives largely listed as inhibitors; 3.5% of 310,000 active; 4'-phosphopantetheinyl transferase ffp (Bacillus subtilis), Q9F4F7; active means well fitted inhibition curve with a large enough effect; inconclusive means small, poorly fitted or top-dose-only effect, or another doubt; inactive means no such curve, though single readings can be large or run the other way;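 further: the enzyme is Sfp with the accession as filed and its product quenches rhodamine fluorescence; potency means the concentration at half of the fitted maximal effect; 0% = enzyme reaction without inhibitor and -100% = no enzyme wells; top concentration of the series not given in the record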
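After 15 min at room temperature with compound, 15 nM Sfp received 5 uM rhodamine-CoA plus 12.5 uM BHQ-2-ybbR (50 mM Hepes pH 7.6, 10 mM MgCl2). Rate came from the fluorescence difference over 30 min, ex 525/em 598 nm.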
CtBP-E1A inh: qHTS Assay for Inhibitors of the CtBP/E1A Interaction; CtBP / adenovirus E1A interaction (AlphaScreen); activity change, % (test concentration not listed); 0.49% of 340,000 active; AlphaScreen GST-E1A/His-CtBP binding, 1536-well; active compounds read low; control for the full effect not named in the record; in the data active means activity change below about -65%; inconclusive means about -30% to -65%; inactive means above about -30%; further: on the % scale 0 is the no-effect control and ±100 the full control effect
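Homogeneous bead-based format: GST-tagged E1A captured on glutathione donor beads, His-tagged CtBP on nickel acceptor beads; compounds precede bead addition by 2 h at 37 °C.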
PINK1 modulator: A Quantitative High throughput Screen to Identify Chemical Modulators of PINK1 Expression | PINK1 immunofluorescence, high-content cytometry, 24 h | Potency, µM (titrated, usually from 76.6 µM), for inactives: top-dose activation (PINK1 increase), usual class: activators | 0.2% of 410,000 active | AID 624263, 2012; active = well fitted activation curve with a large enough effect; inconclusive = small, poorly fitted or top-dose-only effect; inactive = flat fitted curve, though single readings scatter; cell line not stated here;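 further: potency means the concentration at half of the fitted maximal effect; % of control where 0% means no effect; nearly all actives have a fitted effect of over 65% in size; a mitochondrial uncoupler was the plate control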
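A stable cell line was treated with compounds at 5 concentrations for 24 hours, with CCCP as control. PINK1 levels and mitochondrial localization were measured by immunofluorescence with mitochondrial, cell and nuclear markers after fixation, read by laser-scanning cytometry.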
* marks the source's active call; other numbers are inactive results; ? = inconclusive; / = no result given; [ ] = another dose, or the depositor's remark.

1	Cc1ccccc1NS(=O)(=O)c1ccc(NC(=O)CSCc2ccc(Br)cc2)cc1
2	O=C(COC(=O)/C=C/c1ccc(Cl)cc1)Nc1ccc2c(c1)OCCO2
3	CCOC(=O)C1CCCN(C(=O)CCn2nnnc2CN2CCOCC2)C1 (stereo unspecified)
4	CC(C)(C)c1ccc(-c2c(C#N)c(N)nc3c2CCCC3)s1
5	COc1ccc(CN2C(=O)CCC2(C)c2nc3ccccc3[nH]2)cc1 (stereo unspecified)
6	CCC(=O)c1ccc(OCCn2cnc3ccccc32)cc1
Compound	1	2	3	4	5	6
CtBP-E1A inh	9	-7	0	-6	6	9
D2 PAM	0	-21	-3	-10	-3	-4
TRPV1 potentiator	-5	-35	29	9	/	-8
D2 ag	0.4	-5.3	-2.0	1.2	2.0	-1.1
Sfp PPTase inh	26%	22%	8%	18%	/	0%
PINK1 modulator	-2.6%[38.3 µM]	15%	-3.1%	-0.9%	-0.4%	1.4%
Six1-Eya2 inh	-8	-3	11	4	5	-17

Quoted from the results shown for reference:
5	COc1ccc(CN2C(=O)CCC2(C)c2nc3ccccc3[nH]2)cc1 (stereo unspecified)
6	CCC(=O)c1ccc(OCCn2cnc3ccccc32)cc1
Compound	5	6
CtBP-E1A inh	6	9
D2 PAM	-3	-4
TRPV1 potentiator	/	-8
D2 ag	2.0	-1.1
Sfp PPTase inh	/	0%
PINK1 modulator	-0.4%	1.4%
Six1-Eya2 inh	5	-17

Continuation.
7	Cc1nnc(Sc2cc(NCCCO)c([N+](=O)[O-])c3nonc23)s1
8	O=C(O)Cc1ccc(NC(=O)CCN2C(=O)c3ccc([N+](=O)[O-])cc3C2=O)cc1
9	Cc1c(Cl)c([N+](=O)[O-])nn1CCCC(=O)Nc1c(C)n(C)n(-c2ccccc2)c1=O
10	C#CCOCCOCCOCCNc1nc(N2CCN(C(=O)Cn3cc(CCCCN)nn3)CC2)nc(N2CCN(C(=O)[C@H](CCCCN)n3cc(CCCC)nn3)CC2)n1
11	CCCCCCn1c(=O)n2n(c1=O)C[C@]1(OC(=O)NCc3ccccc3)CN(S(=O)(=O)c3ccc(C)cc3)C[C@]1(O)C2
12	COc1cc(CCC(=O)NCC2CCCO2)cc(OC)c1OC (stereo unspecified)
Compound	7	8	9	10	11	12
CtBP-E1A inh	-20	/	/	4	-7	8
D2 PAM	-30	26	-15	-7	-3	6
TRPV1 potentiator	0	-4	7	25	/	3
D2 ag	-5.5	?	-4.9	-3.8	-6.4	0.9
Sfp PPTase inh	3.2µM*	2%	14%	/	/	-4%
PINK1 modulator	1.4%	-1.3%	0.1%	0.3%	3.9%	-1.3%
Six1-Eya2 inh	?	2	5	7	-1	5

Entries shown so far with two or more sulfur atoms:
1	Cc1ccccc1NS(=O)(=O)c1ccc(NC(=O)CSCc2ccc(Br)cc2)cc1
7	Cc1nnc(Sc2cc(NCCCO)c([N+](=O)[O-])c3nonc23)s1
Compound	1	7
CtBP-E1A inh	9	-20
D2 PAM	0	-30
TRPV1 potentiator	-5	0
D2 ag	0.4	-5.5
Sfp PPTase inh	26%	3.2µM*
PINK1 modulator	-2.6%[38.3 µM]	1.4%
Six1-Eya2 inh	-8	?

More structures follow:
13	CCOC(=O)C1=CCN(S(=O)(=O)c2ccccc2F)C1c1cccc(F)c1 (stereo unspecified)
14	COc1ccccc1-c1nc(C#N)c(N2CCc3ccccc3C2)o1
15	O=C(NCc1ccc2c(c1)OCO2)c1ccc(S(=O)(=O)N2CCOCC2)cc1
16	O=C(N/N=C/c1ccc(N2CCCCC2)o1)c1ccccc1[N+](=O)[O-]
17	Cc1noc(C)c1S(=O)(=O)Nc1ccc2c(c1)C(=O)N([C@H](C)CO)C[C@H](C)[C@@H](CN(C)C(=O)NC(C)C)O2
18	Cc1ccsc1C(=O)NCC(c1cccs1)N1CCOCC1 (stereo unspecified)
Compound	13	14	15	16	17	18
CtBP-E1A inh	9	-5	6	1	-24	-4
D2 PAM	3	-16	-1	-7	-4	-11
TRPV1 potentiator	/	-7	-22	0	/	/
D2 ag	3.1	-2.2	-3.8	0.4	-2.1	-2.2
Sfp PPTase inh	/	-20%	13%	?	/	/
PINK1 modulator	0.8%	-6.6%[38.3 µM]	-0.1%	4.7%	0.2%	11%
Six1-Eya2 inh	11	?	11	-22	2	5

19	COc1ccc(Cl)cc1NC(=O)CN(C)CC(=O)Nc1ccc(C)cc1Br
20	O=C(CSCc1ccccc1)NCCc1ccc(F)cc1
21	CC(OC(=O)c1ccc(Br)c(S(=O)(=O)N2CCOCC2)c1)C(=O)NC1CCCCC1C (stereo unspecified)
22	O=C(CC(C(=O)O)c1ccc(Cl)cc1)c1ccc(Br)cc1 (stereo unspecified)
23	Cn1c(C2=C(O)CN(c3ccccc3)C2=N)nc2ccccc21
24	CCc1nnc(NC(=O)CCC(=O)N2CCN(C3c4ccccc4-c4ccccc43)CC2)s1
Compound	19	20	21	22	23	24
CtBP-E1A inh	-3	2	2	5	6	-9
D2 PAM	-5	-5	-2	1	2	-23
TRPV1 potentiator	11	-21	24	-6	-6	-3
D2 ag	-1.5	5.8	2.4	6.4	-3.1	-2.9
Sfp PPTase inh	4%	15%	/	21%	?	10%
PINK1 modulator	2.4%	-0.5%	2.8%	-1.8%	1.9%	-2.5%
Six1-Eya2 inh	-1	0	1	-4	-5	3

25	O=[N+]([O-])/C(Cl)=C(/NCCO)C(Cl)=C(Cl)Cl
26	COCCN(C(=O)COC(=O)CCCOc1ccc(OC)cc1)c1c(N)n(Cc2ccccc2)c(=O)[nH]c1=O
27	COc1ccc(C)cc1S(=O)(=O)NC(C)C(=O)NC1CC1 (stereo unspecified)
28	O=C(NCCCN1CCOCC1)c1ccc(Br)s1
29	O=c1[nH]c(=O)n(C(c2ccccc2)(c2ccccc2)c2ccccc2)cc1N(CCO)CCO
30	COCCNC(=O)C1CCCN(C(=O)COc2ccc(Cl)cc2Cl)CC1 (stereo unspecified)
Compound	25	26	27	28	29	30
CtBP-E1A inh	0	13	1	1	-1	5
D2 PAM	3	7	-7	-4	-13	0
TRPV1 potentiator	/	7	1	-2	/	/
D2 ag	-1.4	-4.4	0.3	0.5	-7.7	7.7
Sfp PPTase inh	/	/	6%	-15%	/	/
PINK1 modulator	-4.3%	0.3%	-1.4%	7.2%[38.3 µM]	0.9%	-0.2%
Six1-Eya2 inh	12	-3	1	1	3	-3

31	COc1cc(/C=C/C(=O)OCC(=O)N2CCC(C)CC2)ccc1O
32	COc1ccc(/C(C)=N/NC(=O)c2ccc(CSc3cccc4cccnc34)cc2)cc1OC
33	COC(=O)[C@]1(C)CCC[C@@]2(C)C3CC[C@@]4(C)C[C@]3(CCC21)CC(=O)N4C (stereo partly specified)
34	Cc1cc(N)ccc1NC(=O)CN1CCOCC1
35	O=C(NCc1ccc(Cl)cc1)c1ccccc1Oc1ccccc1
36	CCn1cc(Cl)c(C(=O)Nc2ccc3c(c2)OCCO3)n1
Compound	31	32	33	34	35	36
CtBP-E1A inh	2	-21	0	-2	29	7
D2 PAM	0	3	-7	-3	-7	0
TRPV1 potentiator	-10	7	-23	-5	?	-4
D2 ag	-1.6	-1.3	-2.1	4.7	-1.5	-4.1
Sfp PPTase inh	/	9%	/	15%	11%	12%
PINK1 modulator	-1.6%	5.2%[38.3 µM]	3.4%	3.7%	-1.6%	1.6%
Six1-Eya2 inh	0	-16	-1	-8	31	6

37	C=CCNc1nc(C2(C)CC3(CC(C)(C)OC3=O)C(=O)O2)cs1 (stereo unspecified)
38	O=S1(=O)CC(N2CCN(CC3CC3)CC2)CN1C1CCCC1 (stereo unspecified)
39	COc1cccc(Cc2n[nH]c(=S)n2Cc2ccco2)c1
40	N#CCSc1nc2sccc2c(=O)n1-c1ccccc1
41	CCOC(=O)C1CCN(CCC(=O)Nc2cccc(Cl)c2)CC1
42	CCC(c1nnnn1C(C)(C)C)N1CCN(C/C=C/c2ccccc2)CC1 (stereo unspecified)
Compound	37	38	39	40	41	42
CtBP-E1A inh	1	1	-1	1	-2	-13
D2 PAM	-26	-8	-9	-7	-35	-8
TRPV1 potentiator	4	/	4	4	0	/
D2 ag	-4.6	-1.2	2.5	-1.0	-0.1	7.7
Sfp PPTase inh	5%	/	-1%	6%	5%	/
PINK1 modulator	0.6%	0.7%	1.5%	-0.7%	0.9%	0.3%
Six1-Eya2 inh	10	13	-20	5	2	-6

43	Cc1cc(NC(=O)COC(=O)c2oc3c(Cl)cccc3c2C)no1
44	COc1ccc(NS(=O)(=O)c2ccc3oc(SC(C)C(N)=O)nc3c2)cc1 (stereo unspecified)
45	NC(=O)C1CCN(C(=O)COc2ccc3c4c(c(=O)oc3c2)CCC4)CC1
46	COc1ccccc1C(=O)COC(=O)C1CCN(S(=O)(=O)c2ccccc2)CC1
47	CCOc1ncccc1C(=O)OCC(=O)Nc1ccc(-c2nc3ccc(C)cc3s2)cc1
48	O=C(CSc1nc(C2CC2)nc2ccccc12)Nc1ccccc1Cl
49	O=C(NCc1cccc(Cl)c1)c1ccco1
Compound	43	44	45	46	47	48	49
CtBP-E1A inh	1	5	-8	-2	-14	6	8
D2 PAM	-3	-7	-9	-7	22	-6	-8
TRPV1 potentiator	-5	1	-15	/	3	-13	1
D2 ag	-3.9	3.9	-5.3	-2.4	3.8	-3.0	0.2
Sfp PPTase inh	-6%	12%	2%	/	11%	-18%	9%
PINK1 modulator	0.5%	-3.1%	-0.4%	1.3%	4.7%	4.4%	3.3%[38.3 µM]
Six1-Eya2 inh	-1	-7	-3	-2	-3	13	1
